Screening data (PubChem BioAssay)
RE007 growth inh: less growth of the S. pombe RE007 Vpr strain; 360,000 compounds, 0.21% hits; Potency, µM (top dose mostly 92.2 µM), for the others: at the top dose activity change, negative = less growth; AID 651644; S. pombe RE007 Vpr strain, BacTiter-Glo ATP luminescence, 24 h; control for the full effect not named in the record; active = well fitted falling curve with a large enough effect; inconclusive = small, poorly fitted or top-dose-only effect; inactive = no such curve, though single readings can be large or run the other way;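 further: on the % scale 0 is the no-effect control and ±100 the full control effect; nearly all actives have a fitted effect of over 50% in size; the assay follows cell death caused by Vpr and the record does not say whether a fall means rescue or toxicity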
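Fission yeast strain RE007, carrying one chromosomally integrated HIV-1 vpr copy, was seeded at OD 0.01 in PMG+AL medium with 23 nL pinned compound. After 24 h at 30 °C and 99% humidity, viability was read by BacTiter-Glo luminescence.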
StopGo reporter: FMDV 2A StopGo reporter, luciferase signal; human cells with a luciferase reporter of 2A StopGo recoding; control for the full effect not named in the record; 410,000 compounds, 1.2% hits; Potency, µM (top dose mostly 57.9 µM), without a hit: at the highest dose signal change, negative = less light; active = well fitted falling curve with a large enough effect; inconclusive = small, poorly fitted or top-dose-only effect; inactive = no such curve, though single readings can be large or run the other way; tested in HEK293T cells; further: on the % scale 0 is the no-effect control and ±100 the full control effect; nearly all actives have a fitted effect of over 45% in size; luciferase light after 4 h
SARS PLpro yeast: inhibitors of SARS-CoV papain-like protease in yeast; S. cerevisiae expressing SARS-CoV PLpro, growth rescue; control for the full effect not named in the record; Potency, µM (series often up to 32.9 µM), without a hit: at the top dose activity, positive = growth rescue; 330,000 compounds, 0.19% hits; AID 485353; active means well fitted rising curve with a large enough effect; inconclusive means small, poorly fitted or top-dose-only effect; inactive means no such curve, though single readings can be large or run the other way; further: 0% is about no effect; nearly all actives have a fitted effect of over 55% in size; growth read by luminescence after 48 h
Active calls of the source: *; ? = inconclusive; [ ] = another dose, or the depositor's remark. Potency means the concentration at half of the fitted maximal effect.

A first look (four entries):
entry	SMILES	RE007 growth inh	StopGo reporter	SARS PLpro yeast
1	Cc1ccc(NS(=O)(=O)c2cccc(C(=O)NCC(c3cccs3)N3CCOCC3)c2)cc1 (stereo not given)	-4%	23%	-1%
2	CCCCn1c(N)c(N(CC)C(=O)c2ccco2)c(=O)[nH]c1=O	-10%	-11%	-6%
3	Cc1cccc(CCN2C(Nc3ccccc3)=NC[C@@H]2C)c1	2%	-10%	2%
4	CCOc1ccc(N(Cc2ccccc2F)C2=NC3CS(=O)(=O)CC3S2)cc1 (stereo not given)	1%	4%	3%

The whole of this part (from the top)
entry	SMILES	RE007 growth inh	StopGo reporter	SARS PLpro yeast
1	Cc1ccc(NS(=O)(=O)c2cccc(C(=O)NCC(c3cccs3)N3CCOCC3)c2)cc1 (stereo not given)	-4%	23%	-1%
2	CCCCn1c(N)c(N(CC)C(=O)c2ccco2)c(=O)[nH]c1=O	-10%	-11%	-6%
3	Cc1cccc(CCN2C(Nc3ccccc3)=NC[C@@H]2C)c1	2%	-10%	2%
4	CCOc1ccc(N(Cc2ccccc2F)C2=NC3CS(=O)(=O)CC3S2)cc1 (stereo not given)	1%	4%	3%
5	O=C(CSc1nnc(C2CC2)n1C1CC1)c1ccccc1F	-10%	32%[activator]	-3%
6	Cc1[nH][nH]c(=O)c1C=NCc1cccc(C(F)(F)F)c1	-1%	-6%	7%
7	CC[C@]12c3[nH]c4ccc(Cl)cc4c3CCN1C(=O)[C@@H](CC(=O)NCC13CC4CC(CC(C4)C1)C3)C[C@@H]2C(=O)N1CCN(C(=O)C2CC2)CC1	6%	?	-7%
8	COc1ccccc1-c1sc2cc3c(cc2c1-c1ccc(O)cc1)OCO3	-9%	-6%	-6%
9	CCN(CC)C(=O)[C@H]1CC(CC(=O)NCc2cccc(C(F)(F)F)c2)C(=O)N2CCc3c([nH]c4ccccc34)[C@]12C (stereo not given in full)	-18%	0%	1%
10	CC1=NCCN1S(=O)(=O)c1ccccc1[N+](=O)[O-]	8%	-5%	-1%
11	CCOC(=O)c1c(-c2cccc(N)c2)cn2ccccc12	13%	-5%	1%
12	CN(CC(=O)Nc1ccc(F)cc1)C(=O)C1CCN(C(=O)Nc2ccccc2)CC1	3%	7%	1%
13	C[C@H](CO)N1C[C@H](C)[C@@H](CN(C)C)Oc2c(NS(=O)(=O)c3ccccc3)cccc2C1=O	4%	0%	-4%
14	CCOc1ccc(S(=O)(=O)Nc2cccc(C(=O)NCCCn3ccnc3)c2)cc1	-15%	-16%	0%
15	CSc1cccc(NC(=O)COC(=O)C2CCN(S(=O)(=O)c3ccccc3)CC2)c1	-2%	-5%	3%
16	CC1(C)Cc2cccc(OCC(=O)OCc3nnc(-c4ccc([N+](=O)[O-])cc4)o3)c2O1	3%	-16%	4%
17	CC(C)(C)OC(=O)NC1CNNC1=O (stereo not given)	4%	8%	-1%
18	CCCSc1ccc([C@@H]2[C@@H]3C(=O)N(CC)C(=O)[C@@H]3[C@]3(C(=O)OC)CCCCN23)cc1OC	4%	-16%	-1%
19	CCN1CCCc2cc(CN(CCN3CCOCC3)C(=S)Nc3cc(F)cc(F)c3)ccc21	-6%	-12%	0%
20	COC(=O)c1cccc(NC(=O)c2cccc(N3C(=O)CCC3=O)c2)c1	-8%	2%	-3%
21	CCOc1ccc(Br)cc1C1=CC(=O)C[C@H](c2ccc(OC)cc2)C1	12%	-16%	-5%
22	Cc1cccc(C)c1NC(=O)CNC(=O)c1ccc(S(=O)(=O)NCc2ccco2)cc1	1%	-3%	-2%
23	O=C(O)c1cccc(Nc2nc3ccccc3nc2NS(=O)(=O)c2ccc(F)cc2)c1	-21%	-22%	-2%
24	C[C@@H]1NC(=O)[C@@]2(C)[C@@H](c3ccccc3)[C@H]3COc4ccc(Cl)cc4[C@@H]3N2C1=O	-6%	0%	-5%
25	CCN(C(=O)COC(=O)c1ccc([N+](=O)[O-])o1)c1cccc2ccccc12	-8%	?	-18%
26	CCCS(=O)(=O)N1CCC(C(=O)NCc2ccc3c(c2)OCO3)CC1	-10%	-4%	2%
27	CC(C)N(C(=O)[C@H]1CC(CC(=O)NC(C)(C)C)C(=O)N2CCc3c([nH]c4ccccc34)[C@]12C)C(C)C (stereo not given in full)	4%	-23%	-4%
28	O=c1c(O[C@H]2O[C@@H](CO)[C@H](O)[C@@H](O)[C@@H]2O)c(-c2ccc(O)cc2)oc2cc(O)cc(O)c12	3%	-6%	-1%
29	C=C1C[C@H](O[C@@H]2O[C@H](CO)[C@@H](O)[C@H](O)[C@H]2O)[C@@H]2[C@H](OC(=O)[C@H]2C)[C@H]2[C@H](C)[C@H](O)C[C@@H]12	8%	-15%	-38%
30	O=C(Nc1ccc2nc(N3CCOCC3)sc2c1)c1ccccc1	-11%	24%	2%
31	CC(C)(C)c1ccc(-c2nn(CCC#N)cc2/C=N/O)cc1	-7%	-5%	-3%
32	CC(C)(C)OC(=O)NCCCCCNC(=O)c1[nH]cnc1C(=O)Nc1ccon1	0%	-17%	0%
33	CC(=O)c1ccc(NC(=O)CN2C(=O)NC3(CCc4ccccc43)C2=O)cc1 (stereo not given)	17%	-9%	-1%
34	CC(=O)OC(C)(C)/C=C/C(=O)[C@](C)(O)C1[C@H](O)C[C@@]2(C)C3CC=C4C(C[C@H](O)C(=O)C4(C)C)[C@]3(C)C(=O)C[C@]12C (stereo not given in full)	-4%	28µM*	11%
35	CC(=O)N(CCCNC(=O)c1ccccc1)C(=O)c1ccccc1	6%	7%	-2%
36	COc1ccc(N=Cc2c(C)[nH][nH]c2=O)cc1	-3%	6%	0%
37	CC(=O)N1CCN(S(=O)(=O)c2cccc(C(=O)NC3CC3)c2)CC1	4%	-5%	-3%
38	CC(C)(C)c1ccc(S(=O)(=O)N2CCN(C(=O)C3=COCCO3)CC2)cc1	-4%	-25%	-1%
39	CC1CCN(C(=O)c2[nH]cnc2C(=O)Nc2ccon2)CC1	2%	5%	2%
40	Cn1cccc1C1CCCN1CC(=O)Nc1ccc(F)c(F)c1F (stereo not given)	-1%	0%	-4%
41	O=C(NNC(=O)c1ccc(F)c(S(=O)(=O)N2CCOCC2)c1)c1ccc(Br)cc1	-9%	-13%	-13%
42	CON(C)C(=O)CC(CN(Cc1ccccc1)C(=O)OC(C)(C)C)c1ccc(Cl)cc1 (stereo not given)	-3%	0%	0%
43	Cc1ccc(C)c(C(=O)OCC(=O)Nc2cccc(S(=O)(=O)N3CCCCC3)c2)c1	-9%	?	3%
44	Cn1c(-c2ccccc2F)cc2onc(-c3ccccc3)c2c1=O	-6%	-60%	7%
45	O=C(Nc1ccccc1C(=O)NC1CC1)c1ccccc1	5%	-24%	0%
46	CC[C@]12c3[nH]c4cc(CCC(=O)N(C)C)ccc4c3CCN1C(=O)[C@@H](CC(=O)NCc1ccco1)C[C@@H]2C(=O)N1CCN(C(=O)c2ccco2)CC1	6%	-1%	12%
47	C=CCn1c(COc2ccc(F)cc2)nnc1SC(C)C(=O)NCC1CCCO1 (stereo not given)	2%	-16%	0%
48	O=C(NN1C(=O)c2ccccc2NC1c1cccnc1)c1ccccc1 (stereo not given)	28%	-9%	6%
49	Cc1ccc(S(=O)(=O)Nc2ccc3c(c2)CC(=O)N([C@H](C)CO)C[C@@H](C)[C@H](CN(C)Cc2ccc(-c4ccccc4)cc2)O3)cc1	5%	-21%	-13%
50	C=CC[C@H](CC(=O)N(CCO)Cc1ccccc1)C(=O)NC[C@H](OC(=O)[C@@H](CC=C)CC(=O)OC(C)(C)C)c1ccccc1	-2%	-7%	-11%
51	O=C1N[C@@H](Cc2c[nH]c3ccccc23)COC(=O)[C@H](Cc2ccc(F)cc2)C/C=C\C[C@H]1CC(=O)N(CCO)Cc1ccccc1	4%	-21%	0%
52	Cc1c(NC(=O)COC(=O)/C=C/c2ccccc2Br)c(=O)n(-c2ccccc2)n1C	-2%	-19%	11%
53	Cc1ccc(S(=O)(=O)N2[C@@H](c3ccc(Cl)cc3)C(C(=O)O)=CC[C@H]2c2cccc(C)c2)cc1	-5%	-5%	2%
54	COCCNCc1ccccc1[N+](=O)[O-]	-18%	-4%	-9%
55	Cc1oc(-c2ccccc2)nc1C(=O)OCC(=O)NC(C)c1ccccc1 (stereo not given)	-2%	-19%	-9%
56	O=C(NCc1nnc(SCC(=O)N2CCOCC2)o1)c1cccs1	7%	-15%	1%
57	COc1ccccc1NS(=O)(=O)c1ccc(C(=O)N2CCCCCCC2)cc1	4%	0%	6%
58	Cc1ccc(-n2c(=O)c3sccc3n(CC(=O)NC3CCCCC3)c2=O)cc1	23%	-3%	-1%
59	COc1ccc(C(C)=O)cc1COC(=O)CCC(=O)c1cccs1	-7%	12%	-6%
60	COc1ccc(OC)c(-c2nn(-c3ccccc3)cc2C(=O)NCC(c2ccco2)N2CCCC2)c1 (stereo not given)	-6%	-8%	2%

Arranged by SMILES length (falling): part of the list above.
entry	SMILES	RE007 growth inh	StopGo reporter	SARS PLpro yeast
50	C=CC[C@H](CC(=O)N(CCO)Cc1ccccc1)C(=O)NC[C@H](OC(=O)[C@@H](CC=C)CC(=O)OC(C)(C)C)c1ccccc1	-2%	-7%	-11%
41	O=C(NNC(=O)c1ccc(F)c(S(=O)(=O)N2CCOCC2)c1)c1ccc(Br)cc1	-9%	-13%	-13%
38	CC(C)(C)c1ccc(S(=O)(=O)N2CCN(C(=O)C3=COCCO3)CC2)cc1	-4%	-25%	-1%
48	O=C(NN1C(=O)c2ccccc2NC1c1cccnc1)c1ccccc1 (stereo not given)	28%	-9%	6%
44	Cn1c(-c2ccccc2F)cc2onc(-c3ccccc3)c2c1=O	-6%	-60%	7%
36	COc1ccc(N=Cc2c(C)[nH][nH]c2=O)cc1	-3%	6%	0%

Continued.
entry	SMILES	RE007 growth inh	StopGo reporter	SARS PLpro yeast
61	COC(=O)Cc1ccc(OC(=O)C2CCN(S(=O)(=O)c3ccc(OC)c(OC)c3)CC2)cc1	3%	-4%	0%
62	Cc1cccc(NC(=O)CN2CCN(C(=O)c3ccc(OCc4cn5ccccc5n4)cc3)CC2)c1C	-7%	?	-2%
63	C=C[C@@H]1c2ccccc2N(S(=O)(=O)c2ccc(C)cc2)[C@H](c2ccc(C(=O)OC)cc2)C1(C#N)C#N	1%	0%	-6%
64	CN(C(=O)COC(=O)CN1C(=O)c2cccc([N+](=O)[O-])c2C1=O)c1ccccc1	-8%	-21%	-3%
65	NS(=O)(=O)c1ccc(CCNC(=O)COC(=O)Cc2ccc([N+](=O)[O-])cc2)cc1	12%	-15%	1%
66	O=C(N[C@H]1C/C=C\C(c2cccc(F)c2)N(Cc2ccccc2)C(=O)C1)OCC1c2ccccc2-c2ccccc21 (stereo not given in full)	6%	-20%	1%
67	O=C(O)c1ccc(CNC(=O)c2ccc(S(=O)(=O)N3CCCCC3)cc2)cc1	-3%	-22%	2%
68	O=C(CN1CCCCC1)Nc1cc(S(=O)(=O)N2CCOCC2)ccc1N1CCCC1	-6%	-8%	-1%
69	O=C1C=C(/C=C/c2ccccc2)C[C@@H](c2ccc3c(c2)OCO3)C1	-12%	5%	4%
70	CN(CC(=O)Nc1ccccc1Br)CC(=O)Nc1ccccc1-c1ccccc1	6%	-28%	-7%
71	COc1ccc(Cl)cc1C(=O)OCC(=O)Nc1cccnc1Cl	-16%	-10%	-3%
72	O=C(O)c1ccc(Cl)c(S(=O)(=O)Nc2ccc(S(=O)(=O)N3CCCC3)cc2)c1	19%	2%	4%
73	C[C@@H]1O[C@@H](O[C@H]2[C@H](O)[C@@H](O)[C@H](Oc3c(-c4ccc(O)cc4)oc4cc(O)cc(O)c4c3=O)O[C@@H]2CO)[C@H](O)[C@H](O)[C@H]1O	-3%	-9%	-10%
74	Cc1ccc(SCCC(=O)N/N=C/c2cccnc2)cc1	-11%	-15%	-3%
75	Cc1ccc(N/C(N)=N/c2nc(C(F)(F)F)cc(C(F)(F)F)n2)cc1	6%	7%	1%
76	C[C@H](CO)N1C[C@H](C)[C@@H](CN(C)S(=O)(=O)c2ccccc2)Oc2ccc(NS(=O)(=O)c3ccc(F)cc3)cc2C1=O	14%	4%	1%
77	Cc1cccc(C(=O)NCC(=O)N2CCC2)c1	15%	-14%	-4%
78	C#CCOCCOCCOCCNc1nc(N2CCOCC2)nc(N2CCN(C(=O)[C@H](CCC(=O)O)n3cc([C@@H](N)CCCCN)nn3)CC2)n1	10%	-4%	5%

A portion of the library (hit frequency here may not be typical).
